From PubChem BioAssay
NPYLR7 ag: activates Aedes aegypti NPYLR7 receptor | activation, % at 10 µM | AID 1259423 | HEK293T NPYLR7/Galpha15, GCaMP6s calcium fluorescence | 270,000 tested, 0.15% active; in the data active means activation above about 40%;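 further: 0% = vehicle and 100% = reference agonist at the receptor; some compounds past the cut are filed as inactive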
NPYLR7 ag max-min: recorded beside NPYLR7 ag, whose call it bears; activation, %; measured here: Max-Min RFU normalised activation; some inactives read as strong as hits;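 span of the calcium signal over five minutes; 0% = vehicle and 100% = native peptide agonist; compound fluorescence can raise it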
* = called active by the depositor; & = joins results of further samples. Some of the compounds tested (hit frequency here may not be typical).

Values in the order – NPYLR7 ag max-min	NPYLR7 ag
NC(=O)C1CCN(c2ccc(S(=O)(=O)NCC3CC3)cn2)CC1
→ 13	25
CCc1nc2ccc(C(=O)Nc3ccc(OC)c(OC)c3)cn2c1N(C)Cc1cccs1
→ -9	2
CCS(=O)(=O)Oc1cccc(CN(Cc2ccco2)C(=O)c2ccc(OC)cc2)c1
→ -15	-15
Cc1cc(C)n(-c2nc(-c3ccccc3)cc(=O)n2CC(=O)Nc2ccccc2)n1
→ 8	2
O=C(NCCc1cccs1)C(=O)NCc1cccc(F)c1
→ 3	11
CC(=O)NC(C(=O)Nc1ccc(C)cc1F)C1CCCC1 (configuration not stated)
→ 5	10
O=C1Nc2c(Br)cc(Br)cc2C1(O)N1CCOCC1 (configuration not stated)
→ -1	5
NC(=O)c1ccc(NC(=O)C2CCN(c3ccc(-c4cccs4)nn3)CC2)cc1
→ -15	-5
CC1Cc2nc(SCC(=O)NCC3CCCO3)n(Cc3ccccc3)c(=O)c2S1 (configuration not stated)
→ -4	1
O=C(NCC1CCCN(Cc2cc3c(cc2Cl)OCO3)C1)c1cccs1 (configuration not stated)
→ 1	9

Ordered by molecular weight (smallest number first): part of the list above
Values in the order – NPYLR7 ag max-min	NPYLR7 ag
CC(=O)NC(C(=O)Nc1ccc(C)cc1F)C1CCCC1 (configuration not stated)
→ 5	10
O=C(NCCc1cccs1)C(=O)NCc1cccc(F)c1
→ 3	11
Cc1cc(C)n(-c2nc(-c3ccccc3)cc(=O)n2CC(=O)Nc2ccccc2)n1
→ 8	2
CCS(=O)(=O)Oc1cccc(CN(Cc2ccco2)C(=O)c2ccc(OC)cc2)c1
→ -15	-15
CC1Cc2nc(SCC(=O)NCC3CCCO3)n(Cc3ccccc3)c(=O)c2S1 (configuration not stated)
→ -4	1

Next section
Values in the order – NPYLR7 ag max-min	NPYLR7 ag
COc1ccc(C(=O)CCC(=O)N2CCc3c([nH]c4ccccc34)C2c2ccccn2)cc1 (configuration not stated)
→ -12	-6
CCCCN1C(c2ccco2)=NS(=O)(=O)c2cc(NC(=O)C3CCCC3)ccc21
→ -2	4
CS(=O)(=O)c1nc(NC(=O)Cc2ccccc2C(F)(F)F)n[nH]1
→ 8	-1
OC[C@H]1CCN(Cc2ccccn2)C[C@H]1O
→ 2	6
CN(C[C@@H]1COCCO1)S(=O)(=O)Nc1ccc2ccc3ncc(-c4cnn(C)c4)cc3c(=O)c2c1
→ -10	-5
COc1ccccc1CNc1sc(S(C)(=O)=O)nc1S(=O)(=O)c1ccc(C)cc1
→ 37	1
O=C(CC(c1ccccc1)c1ccccc1)NCc1nnnn1-c1ccccc1
→ -2	0
CCn1c(C)cc(O)c(C(c2cccnc2)N2CCCCC2)c1=O (configuration not stated)
→ 3	10
NC(=O)c1ccsc1NC(=O)COC(=O)C=Cc1cccs1
→ 5	-4
CCOC(=O)CCC(=O)N1CCN(c2cc(Oc3cccc(Cl)c3)ncn2)CC1C (configuration not stated)
→ 9	10
CCOC(=O)CNC(=O)CSc1ccc2nnc(CCNC(=O)c3ccc(C)cc3)n2n1
→ -11	1
CC1Oc2ccccc2N(CC(=O)Nc2ccc(N3CCCC3)cc2)C1=O (configuration not stated)
→ 19	-2
COc1cc(OC)cc(C2SCCN2C(=O)Nc2cccc(C(F)(F)F)c2)c1 (configuration not stated)
→ 15	9
CCOc1ncccc1CN1CCC(C(=O)N2CCc3ccccc3C2)CC1
→ -10	-5
CC(C)c1cnc(NC(=O)CCc2ccccn2)s1
→ -5	-4
CC(=O)c1c(C)[nH]c(C(=O)OCC(=O)c2ccc(C)s2)c1C
→ 2	6
Cc1nc2c(OCCn3cccc3)cccn2c1N(C)CC1CC1
→ 0	9
CCOc1cnn(Cc2ccccc2)c(=O)c1Nc1ccc(C(=O)N2CCOCC2)cc1
→ 10	7
CCCC(O)(CCC)c1ccc(CN(CCCOC)Cc2ccc(C)s2)o1
→ -1	-8
O=C(Cn1cnc2sccc2c1=O)NC1CCS(=O)(=O)C1 (configuration not stated)
→ 12	6
CCOC(=O)c1c(NC(=O)COC(=O)C2CCC2)sc(C)c1C
→ 8	2
CCNC(=O)N(Cc1ccc(F)cc1)Cc1ccc(OC)c(OS(=O)(=O)c2ccc(NC(C)=O)cc2)c1
→ 22	24
CC(=O)OC(CN1CCCCC1)Cn1c2ccccc2c2ccccc21 (configuration not stated)
→ 3	0
Cc1ccc(-n2c(SCc3ccc(F)cc3)nnc2C(Cc2ccccc2)NC(=O)C(C)Cl)cc1 (configuration not stated)
→ 3	-5
O=C(c1cccc(F)c1)N1CCSC12CCN(S(=O)(=O)c1ccc(Cl)cc1)CC2
→ -2	-3
Cc1[nH]cnc1CN(C)CC(C)N1CCOCC1 (configuration not stated)
→ 3	5
CCCCc1ccc(C(=O)N(CCc2ccccc2)C(C)c2nc3ccccc3c(=O)n2-c2cc(OC)cc(OC)c2Br)cc1 (configuration not stated)
→ 10	14
C#Cc1cccc(N(Cc2cccs2)S(=O)(=O)c2cn[nH]c2)c1
→ 4	5
Cc1nn(CCNC(=O)N(C)c2ccccc2)c(C)c1Cl
→ 0	2
Cc1csc(C(C#N)=Cc2cccc(O)c2)n1
→ -3	1

Full records as entered above:
CCNC(=O)N(Cc1ccc(F)cc1)Cc1ccc(OC)c(OS(=O)(=O)c2ccc(NC(C)=O)cc2)c1 as listed: NPYLR7 ag max-min = 22; NPYLR7 ag = 24
CCOC(=O)c1c(NC(=O)COC(=O)C2CCC2)sc(C)c1C as listed: NPYLR7 ag max-min = 8; NPYLR7 ag = 2

Back to the main list with the four entries that preceded the break.
Values in the order – NPYLR7 ag max-min	NPYLR7 ag
CCCCc1ccc(C(=O)N(CCc2ccccc2)C(C)c2nc3ccccc3c(=O)n2-c2cc(OC)cc(OC)c2Br)cc1 (configuration not stated)
→ 10	14
C#Cc1cccc(N(Cc2cccs2)S(=O)(=O)c2cn[nH]c2)c1
→ 4	5
Cc1nn(CCNC(=O)N(C)c2ccccc2)c(C)c1Cl
→ 0	2
Cc1csc(C(C#N)=Cc2cccc(O)c2)n1
→ -3	1
COc1ccc(C2(c3nnc(-c4cccc(C)c4)o3)CCOCC2)cc1
→ -1	-1
CN(Cc1ccc(-n2cccn2)cc1)Cc1ccc(CO)o1
→ 1	3
CC1=NC2=C(C(=O)CCC2)C(c2ccc3c(c2)OCO3)C1C(=O)OCCc1ccccc1 (configuration not stated)
→ -5	-1
COc1ncc(CN(C)Cc2nc3ccccc3n2C)cn1
→ 9	24
CC1(C(=O)NCC2CC2)CCN1C(=O)CCc1ccc(Cl)cc1Cl (configuration not stated)
→ 0	1
FC(F)(F)c1c(Cl)nnc2c1CCC2
→ 1	5
CCOC(=O)c1[nH]c(C)c(C(=O)OCC(=O)c2cc(C)n(C)c2C)c1C
→ 10	3
CCCNC(=O)Cn1c(-c2nnc(CC)o2)cc2ccccc21
→ -2	-1
COC(=O)c1ccc(S(=O)(=O)N(C)c2ccccc2C(=O)OC)cc1
→ -13	-13
CC(=O)N1CCN(CC(=O)Nc2sc3c(c2C(N)=O)CCC3)CC1
→ 8	9
COc1cccc(Oc2cc(N3CCN(C(C)=O)CC3)ncn2)c1
→ 5	-1
CCN1CCCC1CNc1ncnc2c1cnn2C (configuration not stated)
→ 1	3
O=C(Nc1ccc(Br)cc1Cl)N[C@@H](Cc1ccccc1)C(=O)N1CCC(C(=O)N2CCOCC2)CC1
→ 0	3
O=C1C(Cc2ccccc2)SC(=Nc2ccccc2)N1c1ccccc1 (configuration not stated)
→ -11	-6
COc1ccc(/C=N\Nc2nc(-c3cc4ccc(O)cc4oc3=O)cs2)cc1
→ 11	21
CC1CCc2nc(NC(=O)C3CCN(c4ncccn4)CC3)sc2C1 (configuration not stated)
→ 1	1
COc1cc(NC(=O)c2cn[nH]c2C(C)C)ccc1NC(=O)C(C)(C)C
→ 4	4
COC(=O)C1C(=N)Oc2c(oc(CO)cc2=O)C1c1ccc(F)cc1 (configuration not stated)
→ 6	7
O=C(C1CC1)N(Cc1csc(COc2cccc(Cl)c2)n1)C1CC1
→ 28	40
CC(C)c1nn(C)c(Cl)c1CNC1CCS(=O)(=O)C1 (configuration not stated)
→ 3&3	5&8
CSCCC(NS(=O)(=O)/C=C/c1ccccc1)C(=O)N(C)C (configuration not stated)
→ 3	9
C[C@@H]1O[C@@H](O[C@H]2[C@H](Oc3cc(O)c4c(c3)O[C@H](c3ccc(O)cc3)CC4=O)O[C@H](CO)[C@@H](O)[C@@H]2O)[C@H](O)[C@H](O)[C@H]1O
→ -5	-2
CCOc1ccccc1C(=O)NCCn1c(C)cc2ccccc21
→ -3	-1
CN(C)Cc1ccccc1Cc1ccccc1
→ 0	2
COc1cc(OC)c(-c2[nH]cnc2-c2ccccc2)c(OC)c1
→ 5	3
Nc1nc(NCC2CCCO2)nc(N2CCN(Cc3ccccc3)CC2)c1[N+](=O)[O-] (configuration not stated)
→ 1	3
Cc1ccc(N2C(=O)N(C(C)c3ccccc3Cl)C(=O)C2C)cc1 (configuration not stated)
→ 9	-2
N#Cc1ccc(/C=C/C(=O)Nc2ccccc2C(N)=O)cc1
→ -8	-10
COc1ccc2nc(-c3cccc(NS(=O)(=O)c4ccc(F)cc4)c3)cn2n1
→ -8	-7
COc1ccc(N=CC(C#N)c2nc(C3CC3)cs2)cc1OC (configuration not stated)
→ 4	7
Cc1c(Cl)cccc1-n1ccn(CN2CCOCC2)c1=S
→ -1	0
Cc1cc(C)nc(NC2=NCC(=O)N2c2ccccc2Cl)n1
→ 3	4
Cc1ccc(CNCc2nc3c(s2)CCCC3)s1
→ -2	0
O=C(CN(CCO)C1CCCCC1)Nc1c(Cl)cccc1Cl
→ 3	4
CN(C(=O)C1CC1c1ccc(F)c(F)c1)C1CCS(=O)CC1 (configuration not stated)
→ 7	1
CCOC(=O)c1cc(C)nn1C1CCN(C(=O)c2cc(OC)c(OC)c(OC)c2)CC1
→ 16	26
NC(=O)CSC1=NN2CCCC(=O)N=C2S1
→ 0	7
O=[N+]([O-])c1ccc(-c2ccc(SCc3cccnc3)nn2)cc1
→ 5	12
CN(C)CCCN(C(=O)c1ccc2ncsc2c1)c1nc2ccc(F)cc2s1
→ 0	2
CCCCc1nc(N2CCN(S(=O)(=O)/C=C/c3ccccc3)CC2)c2c3c(sc2n1)CC(C)CC3 (configuration not stated)
→ 17	15
Oc1ccc(Cl)cc1/C=N\Nc1nc(N2CCOCC2)nc(N2CCOCC2)n1
→ -3	0
Cc1nn(C)c(C)c1C(C)NC(=O)N1CC=C(c2cccs2)CC1 (configuration not stated)
→ 1&-8	5&-8
CCCC(Br)C(=O)Nc1cc(C)on1 (configuration not stated)
→ 0	5
OC1CSC(O)CS1 (configuration not stated)
→ -7	-5
COc1cccc(-c2csc(C(C#N)C=Nc3cc(Cl)ccc3OC)n2)c1 (configuration not stated)
→ -6	-5
CCCCCCCCCCCCCCCCCCn1c(=S)[nH]c2ccccc21
→ -2	-1
CCCCOc1ccc(C(=O)N(CCCC)CC(=O)N2c3ccccc3-n3cccc3C2c2cc(OC)ccc2OC)cc1 (configuration not stated)
→ 25	14
CCN(CC)[P+](N(C)Cc1ccco1)(N(CC)CC)N(CC)CC
→ -2	0
CN(C)/C=C1\C(=O)N(c2c(Cl)cccc2Cl)c2cc(C=C(C#N)C#N)ccc21
→ 129*	125*
CCC(C)N(Cc1csc(COc2cc(C)cc(C)c2)n1)C(=O)NC(C)(C)C (configuration not stated)
→ 31	30

Further results follow.
Values in the order – NPYLR7 ag max-min	NPYLR7 ag
COc1ccc(-n2ccc(CNc3ncc(Br)cc3C)n2)cc1
→ 10	0
CN(C)c1cccc2c1C(=O)c1ccccc1C2=O
→ 8&-10	10&-6
CC(=O)Nc1ccc(NC(=O)Cn2nc(-c3ccc(F)cc3)ccc2=O)cc1
→ 5	10
COCCCNC(=O)C(NC(=O)c1ccc(OC)cc1)C1CCN(C(=O)c2cccs2)CC1 (configuration not stated)
→ 33	25
CC(c1nc(-c2cccc(C(F)(F)F)c2)no1)N1CCNC(=O)C1 (configuration not stated)
→ 3	8
Cc1ccc(CNC(=O)CSc2nc(=O)n(CCCO)c3c2CCC3)cc1
→ -18	-11
Cc1cccc2c(C3CCN(C(=O)c4ccc5c(c4)OCO5)CC3)c[nH]c12
→ 45	30
O=C(Nc1nnc(C2CC2)s1)C1Cc2ccccc2O1 (configuration not stated)
→ 3	1
O=C(CSCc1ccccc1Cl)NCCn1cccn1
→ -4	6
Cn1c(O)c(N=NC(=O)c2cccnc2)c2cc(Br)ccc21
→ -3	0
c1ccc(-c2nc(NCC3CC3)nc3ccsc23)cc1
→ 0	6
Cc1ccc(/C=C/C(=O)N2CCCC2C(=O)NC2CC2)c(C)c1 (configuration not stated)
→ 1	2
CCC(C(=O)NCc1cccnc1)n1c(=O)n(-c2cccc(C)c2)c(=O)c2ccc(Cl)cc21 (configuration not stated)
→ 16	3
CCc1csc(NC(=O)N2CCN(C(C)c3cccnc3)CC2)n1 (configuration not stated)
→ 0	2
CC(CC(C)(C)O)=NCc1ccccc1
→ -19	-13
O=C(NC1CCCC1)c1ccc(OC2CCN(C(=O)c3ccc[n+]([O-])c3)CC2)c(Cl)c1
→ 12	15
COc1cccc(C(=O)c2c(N)c(C(=O)Nc3ccc(C)cc3C)c3ccccn23)c1
→ -6	-5
C=CCCC(O)CN(Cc1ccccc1)Cc1cccc(OC)c1 (configuration not stated)
→ 28	32
CS(=O)(=O)c1ccc(CC(=O)N2C[C@@H]3[C@@H]4CC[C@@H](C4)[C@@H]3C2)cc1
→ 5	8
COc1cccc(-n2nnc3c(=O)n(Cc4cccc(C)c4)cnc32)c1
→ 10	9
O=C(Oc1ccc([N+](=O)[O-])cc1)N1CCCCC1
→ 2	1
Fc1cc(F)c2c(c1)C1C=CCC1C(c1ccccn1)N2 (configuration not stated)
→ 10	14
OC(C#CC(O)(c1ccccc1)c1ccccc1)c1ccco1 (configuration not stated)
→ -4	-1
C=CCCOC(=O)N1CCC(=O)N(C)c2ccccc2C(OCC(=O)NC)C1 (configuration not stated)
→ 11	4
Cc1ccc(OCC(=O)NCC(=O)Nc2ccc(Br)cc2C)c([N+](=O)[O-])n1
→ 1	3
